Rango-impB inh – prevents formation of the Rango-importin beta complex | Q14974 | Rango CFP/YFP FRET sensor + importin beta, 45 min | Potency, µM (highest dose often 92.2 µM), for the others: at the top dose inhibition of complex formation | 340,000 tested, 0.031% active | AID 540263; active = rising FRET ratio curve, often small or poorly fitted; inconclusive = mostly compound fluorescence or quenching in the first reads; inactive = flat curves in all reads;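 note: potency is the fitted concentration of half-maximal effect; 0% = DMSO wells and 100% = buffer wells lacking importin beta; nearly all actives have a fitted effect of over 15% in size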
Target sequence (Q14974 whole entry, looked up): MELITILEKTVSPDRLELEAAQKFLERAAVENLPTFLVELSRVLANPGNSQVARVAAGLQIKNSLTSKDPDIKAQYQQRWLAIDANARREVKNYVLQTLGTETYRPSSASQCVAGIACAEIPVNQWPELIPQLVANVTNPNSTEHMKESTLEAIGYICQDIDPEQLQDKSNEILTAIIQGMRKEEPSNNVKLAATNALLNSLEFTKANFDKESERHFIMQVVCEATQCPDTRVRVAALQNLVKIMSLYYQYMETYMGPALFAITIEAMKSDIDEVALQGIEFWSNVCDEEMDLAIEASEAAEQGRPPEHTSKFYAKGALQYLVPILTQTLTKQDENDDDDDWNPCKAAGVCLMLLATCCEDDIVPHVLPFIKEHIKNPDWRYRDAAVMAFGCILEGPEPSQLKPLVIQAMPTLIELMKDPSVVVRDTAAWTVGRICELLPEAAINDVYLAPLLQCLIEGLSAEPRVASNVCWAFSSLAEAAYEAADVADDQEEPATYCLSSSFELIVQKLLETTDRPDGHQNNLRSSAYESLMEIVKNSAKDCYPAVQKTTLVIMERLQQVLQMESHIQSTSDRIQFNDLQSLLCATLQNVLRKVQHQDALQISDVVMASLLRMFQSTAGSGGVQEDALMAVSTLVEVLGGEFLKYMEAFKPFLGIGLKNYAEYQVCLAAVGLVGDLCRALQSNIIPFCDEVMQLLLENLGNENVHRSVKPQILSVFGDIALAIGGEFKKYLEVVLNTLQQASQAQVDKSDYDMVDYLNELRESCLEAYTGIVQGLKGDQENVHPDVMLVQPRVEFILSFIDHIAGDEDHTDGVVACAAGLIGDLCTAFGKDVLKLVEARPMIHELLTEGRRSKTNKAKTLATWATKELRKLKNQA
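FRET biosensor Rango (snurportin 1 IBB between N-terminal EYFP and C-terminal Cerulean), 50 nM in PBS/1 mM DTT/0.02% Tween-20/0.1% BSA, preincubated 5 min RT with compound; 0.125 microM importin beta added, 45 min RT, CFP/YFP FRET ratio read.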
miR-21 FLuc – miR-21 reporter, rising signal; AID 2288; 340,000 tested, under 10 active; HeLa miR-21 FLuc reporter, luciferase, 48 h; Potency, µM (doses to about 38.3 µM), without a hit: at the highest dose reporter change, positive = more light; active = well fitted rising curve with a large enough effect; inconclusive = small, poorly fitted or top-dose-only effect; inactive = no such curve, though single readings can be large or run the other way;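 note: % of control where 0% means no effect; miR-21 action dims this reporter so a rising signal means less miR-21 action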
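HeLa miR-21-FLuc reporter line, endogenous miR-21; 2000 cells/well in DMEM/10% FBS; compound titration up to ~40uM final, 48 h, 37 degree Celsius; luciferase detection reagent, 15 min lysis, CCD luminescence.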
GLA inh pH 4.5 – inhibitors of human alpha-galactosidase A at pH 4.5; P06280; purified enzyme, 4-MU-alpha-Gal fluorescence, pH 4.5; activity change, negative = inhibition, % at 105 µM; 230,000 tested, under 10 active; AID 1467; inconclusive = small, poorly fitted or top-dose-only inhibition, or a rising curve; inactive = flat fitted curve, though single readings scatter; no compound was filed as active;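 note: 0% = full activity with enzyme and -100% = basal without enzyme; dose as in the result columns while the protocol names 77 µM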
Rango dissoc inh – inhibition of RanGTP-driven Rango-importin beta dissociation | Biochemical FRET Rango-importin beta, RanGTP-induced dissociation | 340,000 tested, 0.071% active | Potency, µM (top dose mostly 46.1 µM), without a hit: at the top dose activity change, negative = inhibition | O95149+P62826; active means falling FRET ratio curve, often poorly fitted, with flat reads before Ran was added; inconclusive means other falling curves, or compound fluorescence or quenching; inactive means flat or rising ratio curve;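 note: potency is the fitted concentration of half-maximal effect; % of control where 0% means no effect; nearly all actives have a fitted effect of over 45% in size; -100% = wells without RanGTP and RCC1; the record marks most hits as doubtful in a second field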
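Rango (0.1 uM)–importin beta (0.25 uM) complex; RanGTP-RCC1 trigger; 45 min RT; CFP/YFP FRET read.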
Numbers without * were called inactive; ? = inconclusive; · = not tested or not shown; & = joins results of further samples. Not all compounds are listed; count on the stated rates, not on these rows.

Rango dissoc inh | GLA inh pH 4.5 | miR-21 FLuc | Rango-impB inh | mol
-1% | 6 | -1% | -0.4% | CN(CCNC(=O)C1CCN(S(=O)(=O)N2CCOCC2)CC1)CCc1ccccc1
-5% | 2 | 0% | 0.2% | CC1CC(C)CN(CCCOc2ccccc2[N+](=O)[O-])C1 (centres undefined)
-3% | 2 | -14% | ? | C=Cn1c(C(=O)O)ccc1-c1ccc(CC)cc1
1% | · | -33% | -2.9% | Cc1ccc([N+](=O)[O-])c(OCc2ncc(Cl)n2C)c1
5% | 1 | 0% | 1.8% | Cc1cc(-n2c(C)cc(C(=O)COC(=O)CN=C3NS(=O)(=O)c4ccccc43)c2C)no1
1% | · | · | 1.0% | O=C(O)CCC(=O)c1ccc2sc3ccccc3c2c1
17% | · | -6% | 1.9% | O=C(CCc1c[nH]c2ccccc12)N[C@@H](Cc1c[nH]c2ccc(O)cc12)C(=O)O
9% | 3 | -1% | -2.1% | CC(C)CN(C(=O)COC(=O)Cc1c[nH]c2ccccc12)C1CCS(=O)(=O)C1 (centres undefined)
-4% | · | 6% | -0.6% | COc1ccccc1N1CCN(C(=O)C2CC(=O)N(c3ccccc3)C2)CC1 (centres undefined)
-4% | 4 | 8% | -0.7% | O=[N+]([O-])c1cc(S(=O)(=O)/N=C(/c2ccccc2)N2CCOCC2)ccc1Cl
-2% | · | · | 2.1% | CC1(c2nnc(Cc3ccccc3)o2)CC(c2ccc(Br)cc2)=NO1 (centres undefined)
-20% | -5 | 7% | 46µM* | CCCNc1nc(Nc2ccc(C)cc2)nc(N2CCCC2)n1
6% | 8 | 7% | -0.7% | COc1cc(NC(=O)COC(=O)CSc2cc(C)ccc2C)c(C)cc1[N+](=O)[O-]
5% | -7 | -2% | -0.4% | CCc1ccc2[nH]c(=O)c(CN(Cc3ccccc3OC)C(=O)Nc3ccccc3OC)cc2c1
-11% | · | 2% | 1.0% | CC(C)N(Cc1ccccc1)S(=O)(=O)c1ccc2c(c1)NC(=O)CO2
0% | · | · | 1.6% | Cc1nc(N)nc(N)c1Oc1ccc(Cl)cc1
1% | -5 | -24% | -1.3% | O=C(NNS(=O)(=O)c1ccccc1)c1cc2cc3ccccc3nc2s1
-4% | · | · | -1.7% | Cc1ccc(S(=O)(=O)Nc2ccc(C(=O)N3CCN(c4ccccc4O)CC3)cc2)cc1[N+](=O)[O-]
-1% | · | · | 0.6% | CC(C)CN(C(=O)CSc1ncnc2ccccc12)C1CCS(=O)(=O)C1 (centres undefined)
9% | -2 | 7% | -2.2% | CC(=O)Cc1cc(O)c2ccccc2c1OC(=O)c1ccc(Br)cc1
-6% | 2 | -5% | -1.3% | Cc1ccc(C)n1-n1cnc2sc(-c3ccccc3)cc2c1=O
-4% | · | -54% | -0.5% | CC(C)Sc1nnc(NC(=O)c2ccc3c(c2)OCO3)s1
11% | 3 | -3% | 0.0% | O=C(O)CN1C(=O)/C(=C/c2ccsc2)SC1=S
3% | · | -6% | 1.3% | COC(=O)c1ccc(Cn2cnc3cnccc32)cc1
6% | · | 22% | -0.4% | Cc1ccc(C(C(=O)NCc2ccc(F)cc2)N(Cc2ccco2)C(=O)c2snc(C(N)=O)c2N)o1 (centres undefined)
-18% | -11 | 1% | -3.7% | Cc1ccc(/C=C2/SC(=S)N(c3ccc(S(=O)(=O)Nc4nccs4)cc3)C2=O)cc1
-6% | · | -2% | 0.0% | OCCC1CN(CC#Cc2ccccc2)CCN1Cc1ccccc1F (centres undefined)
-6% | · | · | 0.4% | CC1CCCC(NC(=O)CSc2nnc(C(F)(F)F)n2C)C1C (centres undefined)
0% | · | · | 2.7% | COc1ccc2nc(-c3ccccc3)nc(C3CCCCC3)c2c1
-1% | · | 26% | 1.6% | Cn1c(SCC(=O)Nc2ccccc2)nc2ccccc2c1=O

The results go on:
Rango dissoc inh | GLA inh pH 4.5 | miR-21 FLuc | Rango-impB inh | mol
1% | 5 | 0% | 1.9% | CC1(C)CC(=O)C(C2=NC3(CCCCC3)Cc3ccccc32)=C(O)C1
-12% | -23 | -10% | 6.9% | COc1ccc(C2C(C(=O)c3ccco3)=C(O)C(=O)N2CCOCCO)cc1OC (centres undefined)
1% | · | -1% | -0.3% | COC(CNC(=O)C1CC(=O)N(CCc2ccc(C)cc2)C1)OC (centres undefined)
-4% | · | -5% | 0.5% | O=C(NCCCN1CCOCC1)C(=O)NCC1OCCCN1S(=O)(=O)c1cc(F)ccc1F (centres undefined)
1% | -7 | -10% | 2.7% | Cc1cc(NS(=O)(=O)c2ccc(NC(=O)c3oc4ccccc4c3C)cc2)no1
19% | · | 8% | -0.2% | O=C(c1sc2ccccc2c1Cl)N1CCN(CCc2ccccn2)CC1
-22% | · | 1% | -4.4% | COc1ccccc1C(=O)Nc1ccc2c(c1)CN(Cc1cnc(C)s1)CC2
0% | -1 | -2% | -1.7% | CSCCC1(C(=O)O)NC(c2ccccc2O)C2C(=O)N(C(C)C)C(=O)C21 (centres undefined)
? | -3 | -9% | ? | CCCCCCc1cc2cc(C(=O)Nc3ccc(OC)cc3)c(=O)oc2cc1O
? | 12 | -2% | ? | CCOC(=O)c1cc2nc(-c3ccco3)cc(C(F)(F)F)n2n1
? | -15&-10 | · | ? | O=C1c2ccccc2-c2n[nH]c3cccc1c23
-3% | -8 | -1% | -0.2% | COC(=O)C1CCN(C(=O)CSc2nc3ccc(OC)cc3[nH]2)CC1
-7% | -2 | -5% | -2.2% | CC(NC(=O)C(CC(=O)OC(C)(C)C)NC(=O)OC(C)(C)C)C(N)=O (centres undefined)
0% | -4 | -5% | 0.8% | Cc1ccc(N2C(=O)C3C(C2=O)C2C=CC3C23CC3)c([N+](=O)[O-])c1 (centres undefined)
-1% | -21 | -2% | -4.7% | COc1ccc(Cl)cc1NC(=O)CN1CCC(n2nnc3cc(F)ccc32)CC1
12% | -2 | 7% | 2.6% | O=S(=O)(c1ccccc1Cl)N1CCCC(c2nc(-c3cccnc3)no2)C1 (centres undefined)
-12% | · | -4% | 0.0% | CC(O)c1nc2cc([N+](=O)[O-])ccc2n1Cc1ccccc1 (centres undefined)
8% | -1 | -4% | 6.6% | Fc1cccc(F)c1CN1CCN(c2ncccn2)CC1
4% | · | -1% | 0.5% | COC(=O)c1ccc(NC(=O)c2ccc(NS(=O)(=O)c3cccc4cccnc34)cc2)cc1
14% | -4 | -35% | 0.2% | COc1cccc(CN(CC2CCCO2)C(=O)c2cc3ccccc3oc2=O)c1 (centres undefined)
-2% | -9 | -9% | 3.4% | O=C(O)c1ccccc1C(=O)N1N=C2/C(=C/c3cccc([N+](=O)[O-])c3)CCCC2C1c1cccc([N+](=O)[O-])c1 (centres undefined)
3% | 3 | -7% | 1.7% | COc1cccc(C(=O)NN2CC(O)=C(c3nc4ccccc4s3)C2=N)c1
? | ? | -22% | ? | Cc1ccc(/C=C\c2nccc3c2[nH]c2ccccc23)cc1
-12% | 7 | -1% | 7.5% | COc1ccc(C(=O)NC2CCN(C(=S)Nc3ccc(C)cc3)CC2)cc1
-19% | · | -7% | -0.2% | Cc1cccc(OCc2nnc(SC(C)C(=O)O)n2-c2ccccc2)c1 (centres undefined)
-12% | 1 | -3% | -1.9% | CCC(C)C(=O)NCCc1ccc(S(N)(=O)=O)cc1 (centres undefined)
-1% | 3 | 3% | 0.1% | CS(=O)(=O)N(CC(=O)N1CCN(c2ccccc2)CC1)c1cccc(Br)c1
4% | 4 | -1% | -1.6% | Cc1c(NC(=O)C(C)OC(=O)/C=C/c2ccco2)c(=O)n(-c2ccccc2)n1C (centres undefined)
-20% | · | 9% | ? | CCCc1nnc(SCC(=O)NC2CC2)n1CC
5% | -12 | -1% | 0.4% | CCOC(=O)c1ccc(NC(=O)C(=O)NCc2ccc(/C=C(/C#N)C(=O)NCCOC)o2)cc1

Some of the entries above in another layout.
smiles,Rango dissoc inh,GLA inh pH 4.5,miR-21 FLuc,Rango-impB inh
COc1cccc(C(=O)NN2CC(O)=C(c3nc4ccccc4s3)C2=N)c1,3%,3,-7%,1.7%
Cc1cccc(OCc2nnc(SC(C)C(=O)O)n2-c2ccccc2)c1 (centres undefined),-19%,·,-7%,-0.2%
Cc1ccc(/C=C\c2nccc3c2[nH]c2ccccc23)cc1,?,?,-22%,?
COc1ccc(C2C(C(=O)c3ccco3)=C(O)C(=O)N2CCOCCO)cc1OC (centres undefined),-12%,-23,-10%,6.9%
CCOC(=O)c1cc2nc(-c3ccco3)cc(C(F)(F)F)n2n1,?,12,-2%,?
CCCCCCc1cc2cc(C(=O)Nc3ccc(OC)cc3)c(=O)oc2cc1O,?,-3,-9%,?

More records:
Rango dissoc inh | GLA inh pH 4.5 | miR-21 FLuc | Rango-impB inh | mol
6% | · | · | 1.2% | CC(C)(C)NC[C@@H](O)COc1cccc2c1CCCC2=O
18% | 7 | 1% | -1.7% | CC1=CC(C)(C)N(C(=O)CSc2nnc(C)s2)c2ccc(C)cc21
? | 15 | -28% | ? | COc1ccc(N=c2oc3cc(O)ccc3cc2C(=O)NCC2CCCO2)cc1 (centres undefined)
-2% | · | 0% | -0.6% | CCN(CC)S(=O)(=O)c1ccc(C(=O)Nc2ccc(C(F)(F)F)n(C)c2=O)cc1
8% | · | · | -0.4% | COc1ccc(CNC(=O)[C@@H]2CC=C[C@@H]3CCN(C4CC4)C(=O)[C@@H]32)cc1
-3% | 2 | -6% | 1.5% | CCCCOCCCNC1=NCCCCC1
5% | · | -7% | 0.4% | O=C(NCCN1CCOCC1)c1ccccc1Cl
7% | -8 | 0% | -1.1% | O=C(NCCC1=CCCCC1)C1CCCN(S(=O)(=O)c2cccc3cccnc23)C1 (centres undefined)
-6% | -4 | -3% | -7.6% | CCOC(=O)C(Cc1ccccc1)NC(=O)Cn1nnc(-c2ccccc2)n1 (centres undefined)
29% | · | -42% | -1.2% | COc1ccccc1C(=O)NNC(=O)c1ccc(Br)o1
2% | -5 | 24% | 0.4% | OC(CN1CCN(c2ccccn2)CC1)Cn1c2ccc(Cl)cc2c2cc(Cl)ccc21 (centres undefined)
38% | 4 | 1% | 1.5% | O=C(Cc1ccccc1)NC1(O)C(=O)c2ccccc2C1=O
-9% | · | 29% | -0.4% | COc1cccc(/C=C2/Sc3ccc(C(=O)NCCN4CCCC4)cc3NC2=O)c1
· | -4 | 14% | · | C=C1[C@@H](C)C2[C@H](Cc3ccccc3)NC(=O)[C@]23OC(=O)CC[C@H](O)CCC[C@H](C)C/C=C/[C@H]3[C@@H]1O (some centres undefined)
7% | 9 | 1% | -0.8% | O=C(NCC(c1ccco1)N1CCOCC1)c1cccc([N+](=O)[O-])c1 (centres undefined)
-7% | · | 0% | 2.7% | CCCNC(=O)CCc1nnc2ccc(N3CCC(C)CC3)nn12
-1% | 2 | 0% | 5.1% | O=C([C@H](Cc1ccc(O)cc1)n1cc(CCO)nn1)N1CCNCC1
5% | 4 | -22% | 2.6% | O=C(CSc1nc2ccccc2c2nc3ccccc3n12)NCc1ccco1
-4% | · | 6% | 4.2% | COc1ccc(NC(=O)c2cc(-c3cc(OC)c(OC)c(OC)c3)nc3ccccc23)c(OC)c1
4% | · | 16% | -0.3% | O=C(C(Cl)c1ccccc1)N1CCCC1 (centres undefined)
-3% | -3 | -6% | 0.7% | O=C(CSc1nnnn1Cc1ccccc1)NCC(=O)c1ccccc1
-6% | -3 | 1% | -1.9% | NC(=S)NNC(=O)[C@@H]1CCCC[C@@H]1C(=O)O
-5% | -8 | -3% | 2.4% | CN(Cc1nc2ccc(F)cc2[nH]1)Cc1c(C(=O)N(C)C)nc2ccc(Cl)cn12
4% | -8 | 0% | -1.2% | COc1cc(O)c(C(CCN2CCN(c3ccccc3)CC2)c2ccc(N(C)C)cc2)c(OC)c1 (centres undefined)

Record cards, as listed above. Order of screens: Rango dissoc inh | GLA inh pH 4.5 | miR-21 FLuc | Rango-impB inh
`O=C(NCCC1=CCCCC1)C1CCCN(S(=O)(=O)c2cccc3cccnc23)C1` (centres undefined) is listed with 7% | -8 | 0% | -1.1%
`CC1=CC(C)(C)N(C(=O)CSc2nnc(C)s2)c2ccc(C)cc21` is listed with 18% | 7 | 1% | -1.7%

Source: PubChem (National Center for Advancing Translational Sciences (NCATS))
